Screening results: PubChem, several laboratories
eIF4H inh: inhibitors of RNA binding by human eIF4H | inhibition, % at 35 µM | 0.94% of 290,000 active | eIF4H fluorescence polarization binding assay;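 active = 50% or more with normal probe brightness, or confirmed in later tests; inconclusive = above 50% with abnormal brightness, or retests that disagree; inactive = below 50% or failed in later tests; about a fifth of its hits are not listed in these tables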;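 also: calls also rest on retests at 20 µM and on dose response follow-up; 0% = protein and probe with vehicle and 100% = probe without protein; strong numbers were not always called active; many hits fall short of the cut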
Rce1 inh: yeast Ras-converting enzyme inhibition. Q03530. yeast membranes, quenched prenylated peptide cleavage fluorescence. calls only. 0.27% of 290,000 active;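 active = fall in fluorescence gain of 50% or more versus controls, with final raw signal at or below 3038400; inconclusive = same 50% fall but final raw signal above 3038400; inactive = fall in fluorescence gain under 50%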;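 also: plate controls were neutral control wells for no effect and wells lacking membranes for full effect; tested at 10 µM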
Target sequence (Q03530 whole entry, looked up): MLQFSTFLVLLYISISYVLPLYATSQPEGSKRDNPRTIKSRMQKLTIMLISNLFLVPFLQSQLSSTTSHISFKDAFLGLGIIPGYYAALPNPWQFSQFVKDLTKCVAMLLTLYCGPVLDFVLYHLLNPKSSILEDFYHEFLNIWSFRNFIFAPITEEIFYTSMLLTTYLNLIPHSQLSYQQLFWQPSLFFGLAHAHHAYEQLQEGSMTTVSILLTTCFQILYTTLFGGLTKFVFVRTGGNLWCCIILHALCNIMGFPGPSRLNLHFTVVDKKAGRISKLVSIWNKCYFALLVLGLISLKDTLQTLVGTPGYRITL
HIV Env fusion: inhibitors of HIV Env-mediated cell fusion; HeLa-JRFL Env/CEM21 cell fusion, luciferase; inhibition, % at 12.3 µM; 1.1% of 360,000 active; AID 651610;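 active = mean replicate inhibition score of at least 50 and every replicate individually at or above 50; inconclusive = only one of the two criteria met; inactive = mean below 50 and not all replicates reaching 50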;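 also: 0% = plate neutral controls and 100% = maraviroc near 300 nM; one replicate is shown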
MT1-MMP act inh: inhibitors of human MT1-MMP activation; AID 651647; HT1080 RFP-PRO-GFP cells, GFP/RFP ratio fluorescence, overnight; percent of plate control window, DMSO zero; P50281; GFP/RFP ratio change, % at 20 µM; 0.061% of 360,000 active;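 active = GFP/RFP ratio change of at least 30% with cell ATP level not reduced by more than half and red fluorescence within 50% of control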; also: strong numbers were not always called active
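Compound: 20 µM single dose, 1% DMSO / System: HT1080 RFP-PRO-GFP cells / Controls: DMSO and RFP-L50D-GFP cell wells / Read-out basis: GFP/RFP fluorescence ratio / Schedule: overnight compound exposure at 37 °C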
CSC inhib: cancer stem cell inhibition | inhibition, % at 7.5 µM | AID 2717 | cancer stem cell-like cells viability, luminescence | 1.1% of 300,000 active;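 active = mean at 75% or more and at least half the replicates too; inconclusive = mean and replicates disagree; tested in HMLE shEcad cells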;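 also: 0% = median of negative and 100% = median of positive control wells; the first replicate is given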
Yeast UUG start: yeast start codon fidelity modulation; S. cerevisiae UUG-firefly luciferase reporter, luminescence/redox ratio; activity score, % at 18.7 µM; 0.13% of 350,000 active; AID 602363;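 active = replicate mean at a twofold rise or more, about +100% in these data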;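 also: firefly luciferase made from a UUG start codon reports start codon fidelity; reporter light over untreated wells divided by growth signal over untreated wells; some hits fall short of that in this replicate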
PABP polyA inh: blocks human PABP binding to poly(A) RNA; P11940; fluorescence polarization; inhibition, % at 35 µM; 1% of 290,000 active;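 active = 50% or more with normal probe brightness, or confirmed in later tests; inconclusive = above 50% with abnormal brightness, or retests that disagree; inactive = below 50% or failed in later tests; about a fifth of its hits are not listed in these tables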;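 also: calls also rest on retests at 20 µM and on dose response follow-up; controls were probe without protein and protein plus probe with vehicle; some compounds called inactive have numbers as strong as hits; many hits fall short of the cut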
MT1-MMP act inh RFP: recorded beside MT1-MMP act inh, whose call it bears; RFP signal change, %; measured here: RFP expression control read;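 0 = vehicle wells; hits needed this value within 50% of zero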
The depositor's hits bear a star; i = inactive; ? = inconclusive; / = no result given; + = active, no number.

The opening two records, ahead of the listing:
Results follow in this order: HIV Env fusion, CSC inhib, PABP polyA inh, MT1-MMP act inh, MT1-MMP act inh RFP, Rce1 inh, Yeast UUG start, eIF4H inh
CCc1nnc(NC(=O)C(=O)NCCOC(=O)c2ccccc2Cl)s1
    /, -16, 14, 2, 4, i, -10, -1
CC(=O)c1cccc(OCC(=O)N2CCCc3ccccc32)c1
    -4, -10, -1, -3, -2, i, -19, -4

Results, previewed entries included:
Results follow in this order: HIV Env fusion, CSC inhib, PABP polyA inh, MT1-MMP act inh, MT1-MMP act inh RFP, Rce1 inh, Yeast UUG start, eIF4H inh
CCc1nnc(NC(=O)C(=O)NCCOC(=O)c2ccccc2Cl)s1
    /, -16, 14, 2, 4, i, -10, -1
CC(=O)c1cccc(OCC(=O)N2CCCc3ccccc32)c1
    -4, -10, -1, -3, -2, i, -19, -4
Cc1ccccc1Oc1ccc2c(c1)[C@@H]1C[C@H](N(C)C(=O)c3ccco3)[C@H]([C@H](C)O)C(=O)N1CC2
    -378, /, /, 0, -5, /, -1, /
Cc1c(NC(=O)Cc2noc3ccccc23)cccc1[N+](=O)[O-]
    0, 6, -11, -1, -5, i, -12, 1
C/C(=N\NC(=O)c1nnn(-c2nonc2N)c1-c1ccccc1)c1cccnc1
    11, 6, -6, -3, 0, i, -14, -6
CN(c1ccccc1)S(=O)(=O)c1ccc(Cl)nc1
    0, 6, 8, 2, 1, i, /, -6
Cc1cc(OCC(=O)NCc2ccncc2)c2c(C)c(C)c(=O)oc2c1
    1, -7, -5, 4, 1, i, -8, -7
CCCCN(C)CCN1C(=O)C2C(C(=O)Nc3ccc(C)cc3)C3C=CC2(O3)C1C(=O)NC1CCCCC1 (stereo unspecified)
    6, 19, 13, 2, 4, i, 6, -5
Cc1ccc(-c2nnc(SCC(=O)Nc3ccccc3F)o2)cc1
    66*, 70, 3, -2, -2, i, -24, -1
CCOC(=O)N1CCN(c2c(N3CCN(c4cccc(C)c4C)CC3)c(=O)c2=O)CC1
    -14, /, -5, -2, 1, /, -4, 0
CC(C)c1[nH]nc2c1C(C1C=CCCC1)C(C#N)=C(N)O2 (stereo unspecified)
    23, 19, 0, -2, -1, i, /, -5
OC(CNCc1ccccc1Cl)COc1ccc(F)cc1 (stereo unspecified)
    -2, /, 3, 0, 2, i, -3, -15
O=c1[nH]nc(Cc2ccc(-c3ccc(Cl)cc3)o2)c2ccccc12
    40, -6, 13, -2, -5, i, -24, 12
COCCn1cc(C(=O)NCCN(C)C)c2c3ccccc3n(C)c2c1=O
    -8, 8, 2, 1, 1, +, -12, -3
CCOc1ccc(S(=O)(=O)N(C)c2ccc(OCC(=O)NCC3CCCCC3)cc2)cc1
    /, -3, /, -2, -11, /, 0, /
CCN(CC)C(=O)C(=O)N/N=C/c1ccc(Br)cc1
    /, -6, 29, /, /, i, -5, -1
CCN(CC)c1ccc(/C=N/Nc2ccccc2)c(O)c1
    /, 16, 6, -10, 9, i, -10, 3
CC(=O)C1=C(O)C(=O)N(CCCCCC(=O)O)C1c1ccc(N(C)C)cc1 (stereo unspecified)
    /, /, 3, 3, 5, i, 0, 4
Cc1nnc(NC(=O)CS(=O)(=O)Cc2ccccc2)s1
    1, /, 4, -6, 5, i, -16, 13
O=C(NCC(=O)N1CCN(c2ccccc2O)CC1)c1ccc2c(c1)OCO2
    12, 4, /, -1, 2, i, -2, /
CN(CC(=O)Nc1cccc(F)c1)C(=O)CSc1nc2ccccc2s1
    -237, -9, /, 3, 4, i, /, /
Cc1ccc2c(c1)C1CN(C)CCC1N2S(=O)(=O)c1cc(C(F)(F)F)ccc1Cl (stereo unspecified)
    23, 3, /, -9, -7, /, -16, /
O=C(NC(O)C(=O)c1ccccc1)c1ccccn1 (stereo unspecified)
    8, /, 3, 3, 4, i, -25, -7
O=C(c1cccs1)n1nc(-c2ccccc2)nc1NCc1ccco1
    -113, -5, 2, -2, -1, i, -15, 7
COc1ccc(OCC(=O)Nc2c(Cl)ccc3nsnc23)cc1
    -21, /, 10, -1, -1, i, -11, -9
Cc1nn(C)cc1CNCc1c(C(=O)N2CCCCC2)nc2c(C)cccn12
    -1, -13, -7, -4, -1, i, /, -3
CCC(=O)Nc1cccc(-c2ccc(N3CCC(C)CC3)nn2)c1
    16, 7, 7, 9, -7, i, -63, -6
Cc1ccc(NC(=O)c2cnccn2)c(Br)c1
    -45, -6, 0, -1, 1, i, -3, -2
O=C(CN1CCN(S(=O)(=O)c2ccc(Cl)cc2)CC1)Nc1ccc2c(c1)OCCO2
    /, -5, 3, 8, 0, i, -7, 6
Cc1ccc(S(=O)(=O)Nc2ccccc2F)cc1C(=O)N1CCCC1
    /, -21, /, -3, -1, /, -7, /
Cc1c(C(=O)O)oc2ccc(S(=O)(=O)NCc3ccc4c(c3)OCO4)cc12
    -26, -3, -1, 0, 5, i, -10, -6
Cc1cccc(C(=O)NCCCNC(=O)c2cccc(C)c2)c1
    -9, -1, -3, 0, -1, i, -11, -10
COc1cc(CNc2ccc3[nH]c(=O)[nH]c3c2)cc(Br)c1OCC(=O)NC(C)(C)C
    33, -5, -6, -6, 4, i, 1, -3
Cc1cc(C)nc(N(C#N)Cc2ccc(Cl)cc2)n1
    10, 7, 6, 0, 2, i, /, 5
O=C(CN1C(=O)c2ccccc2C1=O)Nc1ccccc1C(=O)N1CCCC1
    17, -11, 0, 1, 5, i, -13, -16
CCc1nc2scc(-c3cccs3)c2c(=O)o1
    /, -3, -6, 3, 8, i, -13, 38
CCCC1CCC(c2ccc(OCC)cc2)=CC1=O (stereo unspecified)
    -69, 10, -4, -2, -2, i, -18, -4
Cc1ccc(C(=O)NCC(=O)NC2CC2)cc1
    /, -15, /, -3, -1, /, 4, /
CC1(C)CC(=O)c2ccc(OCc3ccc([N+](=O)[O-])cc3)cc2O1
    -38, -19, 7, -2, -1, i, -16, -6
Cc1cn2c(=O)c(C(=O)NCc3ccc4c(c3)OCO4)cnc2s1
    -24, 8, /, 0, -1, i, -18, /
Cc1ccc(S(=O)(=O)N2CCN(c3ccccc3)CC2)s1
    /, -2, /, 0, 0, /, 10, /
CCSc1nnc(NC(=O)CSC2=NN3CCCC(=O)N=C3S2)s1
    4, -14, 0, 4, 4, i, /, 4
O=C(CCSCCc1ccncc1)NCCCN1CCOCC1
    /, -6, -8, 3, 9, i, -20, 2
O=C(NCc1ccncc1)c1nnc(Cc2c(F)cccc2Cl)o1
    25, -9, -7, 3, 4, i, -5, 1
S=C(Nc1ccccc1Cl)N1CCCC1
    1, 23, -4, -2, -1, i, -26, 2
CC(=O)Nc1ccc2c(c1)nc(CCN1CCOCC1)n2C
    7, -7, 0, 0, 1, /, -17, 3
Cc1nc2ccc(S(=O)(=O)NC(C(=O)NCc3cccs3)C(C)C)cc2s1 (stereo unspecified)
    -17, -2, -22, -1, 4, i, -13, -3
COc1ccccc1OCCCCN1CCN(C(c2ccccc2)c2ccccc2)CC1
    /, 18, 8, -8, -6, i, -1, 0
Oc1c(Cl)cccc1C=Nc1cc(C(F)(F)F)ccc1N1CCCC1
    /, -5, 1, -5, -2, i, -12, 2
CCOC(=O)N1CCN(S(=O)(=O)/C=C/c2ccccc2)CC1
    -27, -5, 2, 6, -1, i, -12, 2

(further entries)
Results follow in this order: HIV Env fusion, CSC inhib, PABP polyA inh, MT1-MMP act inh, MT1-MMP act inh RFP, Rce1 inh, Yeast UUG start, eIF4H inh
COc1cccc(C(=O)/C=C2\NCCc3cc(OC)c(OC)cc32)c1
    16, 1, 12, -2, 1, i, /, -5
CCOc1ccc(NC(=S)Nc2ccc(OC)cc2)cc1
    16, 5, -5, -1, 1, i, -16, -11
COc1cccc(CNCCO)c1OCc1ccc(Cl)cc1
    10, /, 9, -2, 0, i, /, -7
CC(CCCC(C)(C)O)NC(=O)c1ccc(OC2CCN(C(=O)C3CC3)CC2)cc1 (stereo unspecified)
    -10, -14, 1, 4, 0, i, 1, 0
CC(=O)Nc1ccc(N=Cc2nc(-c3ccc(C)cc3)oc2O)cc1
    -14, -6, ?, 0, 1, i, -28, ?
CCOC(=O)C1=C(N)OC2=C(C(=O)CCC2)C1c1ccc2c(c1)OCO2 (stereo unspecified)
    2, -14, /, 2, -2, i, -12, /
CN(C)CCCN(CCCN(C)C)C(=S)Nc1ccc(S(=O)(=O)N2CCOCC2)cc1
    5, -14, 0, 3, 4, i, -24, 2
Cc1ccc(NC(=O)/C(C#N)=C(\N)C(Cl)(Cl)Cl)nc1
    /, 12, 3, -25, 1, i, /, 38
Cc1cc(C)n2nc(SCc3ccccc3F)nc2n1
    -1, -9, 0, 6, 7, i, -14, -13
Cc1ccc(C2CC(c3ccco3)=NN2S(C)(=O)=O)cc1 (stereo unspecified)
    6, -15, -4, 1, 3, i, -2, 8
COC(=O)CNC(=O)Cn1c(=O)n(Cc2ccc(F)cc2)c(=O)c2sccc21
    3, -12, 11, 5, 0, i, -14, 0
CC(C)CC(=O)Nc1ccccc1Oc1ccccc1
    -99, 8, 0, 5, 0, i, -12, -5
O=C(Nc1cccc(C(F)(F)F)c1)C(Sc1n[nH]c(=O)[nH]c1=O)c1ccccc1 (stereo unspecified)
    6, -4, 3, 10, -1, i, 4, -2
CC(CC(=O)Nc1ccccc1C(F)(F)F)c1ccccc1 (stereo unspecified)
    9, -12, 12, 6, 3, i, /, -9
CCOc1ccc(N2CC(C(=O)N3CCc4ccccc4C3)CC2=O)cc1 (stereo unspecified)
    /, -11, 2, 1, -2, i, -10, 8
CC(C)NC(=O)CSc1nc(N)c(-c2ccccc2)c(=O)[nH]1
    -10, -1, -10, 1, -1, i, -13, -6
CC1CCCN(CCC(=O)c2ccccc2)C1 (stereo unspecified)
    36, /, /, 0, 5, /, -19, /
CSCC[C@H](NC(=O)[C@@H]1Cc2ccccc2CN1)C(=O)NC[C@H]1CC[C@H](C(=O)O)CC1
    2, -6, 3, 0, 5, i, -17, -2
CCN(CC)S(=O)(=O)c1cc(NC(=O)Cc2ccsc2)ccc1C
    -35, -7, 11, 2, -3, i, 2, -4
COc1ccc(CNc2nc3ccccc3n2CCN2CCCCC2)cc1
    9, -3, -12, 4, -3, i, -16, -4
Cc1ccc(NC(=O)CSCC(=O)N(C)CCOc2ccc(Cl)cc2)cc1
    -4, /, /, 3, 2, /, -10, /
COC(=O)c1ccc(NC(=S)NCCc2ccccc2)cc1
    /, -13, -12, 12, 3, i, /, 0
Cc1nc2c(C)cccc2cc1C(=O)N/N=C/c1cccnc1
    8, 0, 2, -6, 2, i, -12, -4
FC(F)(F)c1cc(Cl)c2nnc(-c3ccccn3)n2c1
    13, -3, 16, 3, 5, i, 1, -15
Cn1cnc([N+](=O)[O-])c1Sc1nc2ccccc2[nH]1
    -149, -12, 0, 6, 7, i, -27, 1
CCOC(=O)c1nnn2c1nc(N1CCN(c3ccccc3)CC1)c1ccccc12
    7, -10, 11, 6, -5, i, /, -6
CC1CCN(CC(=O)N(C)c2c(N)n(Cc3ccccc3)c(=O)[nH]c2=O)CC1
    44, /, /, 14, 3, /, 19, /
Cc1ccc2c(c1)c1c(n2CC(O)CNC2CCCC2)CCCC1 (stereo unspecified)
    2, 8, 10, 1, -3, i, 4, 3
CSc1cccc(NC(=S)NCCCN2CCN(c3ccc(F)cc3)CC2)c1
    8, 6, 5, 1, 1, i, -18, 2
COc1ccc(N(CC(=O)NC2CCCCC2)S(=O)(=O)c2cccnc2)cc1
    -18, 2, 13, -6, 0, i, -5, 2
COc1cc(CN2CCCC(C)C2)cc([N+](=O)[O-])c1O (stereo unspecified)
    9, -3, -3, 0, -1, i, -17, -1
CCC1NC(=O)c2cccnc2-n2c1nc1ccc(C)cc1c2=O (stereo unspecified)
    -3, /, /, -5, 0, /, -19, /
CCOCc1c(C(=O)Nc2cc(OCC)c(N3CCOCC3)cc2OCC)oc2ccccc12
    26, -20, -6, 1, 1, i, /, -4
